Beta apoptosis: blocks beta cell apoptosis; INS-1E cytokine-induced death, ATP luminescence, 48 h; percent of positive-control rescue, neutral wells zero; 300,000 compounds, 0.8% hits; protection from apoptosis, % (no concentration beside the values); AID 435005;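 active = all replicates at 75% or more, or half of them and the mean; inconclusive = half reach 75% but not the mean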;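 note: 0% = cytokine-treated negative control wells and 100% = positive control rescue; higher means more ATP so stronger rescue from cytokine killing; wells of about 40 µL received 100 nL stock; the first replicate is given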
AF4-AF9 inh: MLL-AF4/AF9 protein interaction inhibition; P42568; AlphaScreen, biotin-AF4 peptide binding to FLAG-AF9; inhibition, % at 10 µM; 350,000 compounds, 0.47% hits;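 active = every replicate reaching a set inhibition limit, whatever the replicate mean, cut at about 25% in these data; inconclusive = mean inhibition reaches that limit but some replicates miss it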;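 note: 0% = plate neutral control median and 100% = total signal loss; the record names both 10 and 1 µM as test concentration; the first replicate is given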
Vif TR-FRET: inhibitors of Vif binding to APOBEC3G peptide, primary screen, biochemical, TR-FRET, GST-Vif 1-94, biotin-A3G peptide, dose response retest (AID 1117319); TR-FRET GST-Vif / biotin-A3G peptide binding; higher % means a stronger effect; test concentration not given here; strong numbers were not always called active; inhibition, %, or IC50 in µM where a hit was titrated; 260,000 compounds, 0.57% hits;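 active = above the screen mean plus three standard deviations and confirmed in dose response; inconclusive = results disagree or hit not tested in dose response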;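 note: Vif residues 1-94 fused to GST binding biotinylated APOBEC3G peptide 110-148; 0% = full assay without inhibitor and 100% = GST in place of GST-Vif; retest series ran down from 100 µM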
RanGTP-Impb inh: disruptors of Ran-importin-beta complex formation – biochemical, FRET, CFP-Ran, YFP-importin-beta, homogeneous, primary screen; 300,000 compounds, 1.1% hits; AID 2216; cell-free CFP-Ran/YFP-importin-beta FRET ratio; inhibition, % (test concentration not listed);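 active = most replicates above 15%; inconclusive = exactly half above 15%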;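 note: 0% = DMSO wells and 100% = Ran loaded with GDP instead of GTP; wells of about 40 µL received 100 nL stock; the first replicate is given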
Bfl-1 A1 inh: inhibitors of the anti-apoptotic protein A1, read as caspase activation; MEF A1-2A-BIM cells, Caspase-Glo 3/7 luminescence, 3 h; percent of clofoctol response, vehicle zero; caspase activation, % (test concentration not listed); AID 2462; 330,000 compounds, 0.066% hits;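 active = over half of replicate activation scores above 10%, or exactly half above 10 with the replicate mean above 10; inconclusive = replicate mean below 10 yet half the replicates above 10; inactive = over half of replicates below 10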;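 note: wells of about 30 µL received 50 nL stock; many hits fall short of the cut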
Calb FLC: C. albicans growth modulation with fluconazole; C. albicans CaCi-2 (fluconazole-resistant clinical isolate) + fluconazole, Alamar Blue growth, 48 h; 300,000 compounds, 0.57% hits; growth inhibition, % (concentration not given with the values); AID 1979;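 active = most replicates above 75%; inconclusive = exactly half above 75%; inactive = most below 75%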;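 note: all wells also contain fluconazole at 8 µg/ml as a sub-toxic cotreatment; 0% = median of DMSO wells and 100% = median of geldanamycin control wells; wells of about 8 µL received 7.5 nL stock; the first replicate is given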
T cruzi repl: T. cruzi replication inhibition | T. cruzi beta-gal in NIH3T3, luminescence, 90 h | inhibition, % (concentration not given with the values) | 300,000 compounds, 1.4% hits | AID 1885;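 active = mean inhibition across valid replicates above about 55%, limit read from the data; inconclusive = mean below that limit but half or more replicates reach it; inactive = mean below it, under half of replicates reach it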;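 note: signal also drops with host cell toxicity which is not excluded here; 0% = plate median of DMSO wells and 100% = zero luminescence signal; higher percent means less beta-gal luminescence so fewer parasites; stock transfer was 50 nL into about 50 µL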
LANA-H2B inh: blocks KSHV LANA binding to histone H2A/H2B; Q9QR71; cell-free LANA-H2A/H2B peptide, fluorescence polarization; inhibition, % (concentration not given with the values); 320,000 compounds, 0.6% hits; AID 2629; in the data active = inhibition mostly above about 10%, no sharp cut-off; inactive = mostly below about 6.7%;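 note: stock transfer was 7.5 nL into about 10 µL; 0% = median of vehicle wells and 100% = median of positive control wells; one replicate is shown; the record names a cut of 25% in any replicate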
Target sequence (Q9QR71 whole entry, looked up): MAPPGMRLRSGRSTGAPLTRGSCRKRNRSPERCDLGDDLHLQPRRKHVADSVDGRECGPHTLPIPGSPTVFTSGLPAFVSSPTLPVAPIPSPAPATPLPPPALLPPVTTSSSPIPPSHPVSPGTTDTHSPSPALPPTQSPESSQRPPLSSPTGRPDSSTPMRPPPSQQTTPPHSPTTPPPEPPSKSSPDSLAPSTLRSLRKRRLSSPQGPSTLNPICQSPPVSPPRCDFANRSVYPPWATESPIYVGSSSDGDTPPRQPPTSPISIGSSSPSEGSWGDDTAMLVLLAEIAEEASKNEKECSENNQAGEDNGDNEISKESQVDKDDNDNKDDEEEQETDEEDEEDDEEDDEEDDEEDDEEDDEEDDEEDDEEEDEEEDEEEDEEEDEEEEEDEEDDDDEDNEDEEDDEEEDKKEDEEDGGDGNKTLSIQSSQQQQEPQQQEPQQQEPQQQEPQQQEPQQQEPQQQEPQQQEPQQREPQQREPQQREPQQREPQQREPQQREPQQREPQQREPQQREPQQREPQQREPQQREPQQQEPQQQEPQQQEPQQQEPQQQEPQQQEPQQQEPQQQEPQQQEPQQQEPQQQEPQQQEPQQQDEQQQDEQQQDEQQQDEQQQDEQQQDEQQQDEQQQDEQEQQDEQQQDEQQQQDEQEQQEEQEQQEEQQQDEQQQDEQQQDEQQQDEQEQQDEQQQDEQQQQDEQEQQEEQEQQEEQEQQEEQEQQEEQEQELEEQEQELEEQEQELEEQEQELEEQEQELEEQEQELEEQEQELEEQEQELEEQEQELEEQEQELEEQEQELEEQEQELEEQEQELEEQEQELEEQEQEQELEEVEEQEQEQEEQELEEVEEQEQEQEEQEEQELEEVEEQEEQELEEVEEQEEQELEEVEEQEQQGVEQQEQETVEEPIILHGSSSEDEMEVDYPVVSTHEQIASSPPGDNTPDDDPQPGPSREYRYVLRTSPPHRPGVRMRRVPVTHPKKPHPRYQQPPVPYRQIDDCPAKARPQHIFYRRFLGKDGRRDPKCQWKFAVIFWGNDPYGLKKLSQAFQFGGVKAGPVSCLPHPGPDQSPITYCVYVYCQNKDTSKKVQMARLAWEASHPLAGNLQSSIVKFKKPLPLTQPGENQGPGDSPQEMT
Starred values were filed as active, the others as inactive; i = inactive; ? = inconclusive; nt = not tested or not shown; & = joins results of further samples.

SMILES	Beta apoptosis	AF4-AF9 inh	Vif TR-FRET	RanGTP-Impb inh	Bfl-1 A1 inh	Calb FLC	T cruzi repl	LANA-H2B inh
CN(C)CCCNC(=O)CC1C[C@H](C(=O)N2CCCCC2)[C@@]2(CCc3ccccc3)c3[nH]c4ccccc4c3CCN2C1=O (stereo partly drawn)	8	5.1	5%	nt	0.0	nt	nt	i
Cc1ccc(-n2c(SCC(=O)N/N=C/c3c(C)nn(-c4ccccc4)c3C)nc3ccccc3c2=O)cc1	22	-0.3	nt	3.2	-0.3	-5	36	-6.0
COc1ccccc1NC(=O)Nc1cccc(C(=O)O)c1	nt	2.0	0%	0.4	0.7	-2	1	0.4
O=C(CSc1n[nH]c(-c2ccccc2F)n1)NCC(=O)Nc1ccc(F)c(F)c1F	0	-2.5	4%	1.4	0.1	-1	9	2.4
COc1ccccc1CNC(=S)NC1CCCC1	-1	-3.2	nt	1.4	-0.8	-12	-16	4.7
O=C(CN(Cc1ccc(F)cc1)C(=O)CNS(=O)(=O)c1ccccc1)NCc1ccco1	-1	0.3	-2%	-1.4	0.8	7	1	-4.9
CCCn1ncc([C@@H]2C[C@H]3CN(Cc4cccc(Cl)c4)C(=O)[C@]34CCCN24)c1C	-2	0.9	-7%	?	0.9	-12	-6	3.3
O=C(c1ccco1)N1CCN(C(c2ccccc2Cl)c2nnnn2CC2CCCO2)CC1 (stereo not drawn)	2	nt	1%&-9%	11	0.0	0	-15	-0.6
COc1cc(/C=N/NC(=O)COc2ccc(Cl)cc2)ccc1OS(=O)(=O)c1ccc(C)cc1	5	nt	2%	?	-1.1	4	18	-5.9
Cn1nc(-c2ccccc2)c2cc(C(=O)O)sc21	-6	1.0	2%	-4.8	0.3	0	-10	-2.8
CCN(C(=O)Cn1c(=O)oc2ccccc21)c1c(N)n(Cc2ccccc2)c(=O)[nH]c1=O	0	-0.9	-2%	nt	0.4	nt	nt	-4.0
O=C(c1cc(COc2cccc(C(F)(F)F)c2)on1)N1C[C@@H]2CCC[C@H]1C2	-5	-15	-5%	4.6	-0.2	-9	8	3.8
O=C(NC(=S)Nc1ccc(F)cc1)C1CCCCC1	nt	-0.4	-4%	-0.9	0.6	1	14	-1.5
O=C(CN1C(=O)c2ccccc2C1=O)N1CCN=C1c1ccccc1	2	-1.4	?	-3.0	-0.3	-8	-6	0.4
CN1C(=O)C2(C(C#N)=C(N)N(c3cc(Cl)cc(Cl)c3)C3=C2C(=O)CC(C)(C)C3)c2ccccc21 (stereo not drawn)	-5	nt	2%	-2.4	0.1	0	12	0.7
CCS(=O)(=O)NCCc1csc(-c2cccnc2)n1	-3	1.3	-3%	7.6	0.0	-4	13	4.1
O=C(c1cc2ccc([N+](=O)[O-])cc2oc1=O)N1CCOCC1	2	-2.0	-10%	-3.8	-1.1	-10	-4	-1.2
CCOC(=O)C1CCN(C(=O)CN2C(=O)c3ccccc3S2(=O)=O)CC1	-3	-6.4	-4%	-2.4	0.6	4	-7	nt
Cc1cc(=O)oc2cc(OCC(=O)OCC(=O)Nc3ccc(C(C)C)cc3)ccc12	-6	-4.6	nt	-1.0	0.7	-1	-3	1.4
Cc1ccc(CSCC(=O)N(CCC(C)C)c2c(N)n(Cc3ccccc3)c(=O)[nH]c2=O)cc1	6	-1.2	2%	-1.4	0.1	10	-1	-4.3

Look-ups from the entries so far:
Beta apoptosis with CCOC(=O)C1CCN(C(=O)CN2C(=O)c3ccccc3S2(=O)=O)CC1 reads -3
LANA-H2B inh with CCN(C(=O)Cn1c(=O)oc2ccccc21)c1c(N)n(Cc2ccccc2)c(=O)[nH]c1=O reads -4.0
RanGTP-Impb inh with O=C(CN1C(=O)c2ccccc2C1=O)N1CCN=C1c1ccccc1 reads -3.0
AF4-AF9 inh with Cc1ccc(CSCC(=O)N(CCC(C)C)c2c(N)n(Cc3ccccc3)c(=O)[nH]c2=O)cc1 reads -1.2
Bfl-1 A1 inh with CN1C(=O)C2(C(C#N)=C(N)N(c3cc(Cl)cc(Cl)c3)C3=C2C(=O)CC(C)(C)C3)c2ccccc21 (stereo not drawn) reads 0.1

Next part:
SMILES	Beta apoptosis	AF4-AF9 inh	Vif TR-FRET	RanGTP-Impb inh	Bfl-1 A1 inh	Calb FLC	T cruzi repl	LANA-H2B inh
c1ccc2oc(-c3ccc(Nc4nc(N5CCCC5)nc(N5CCOCC5)n4)cc3)nc2c1	-7	nt	1%	0.8	-0.9	-10	21	3.9
CCOC(=O)Cc1nnc(NCc2ccccc2)c2ccccc12	4	-0.9	-6%	-3.8	0.5	10	30	3.7
C=CCn1c(SCc2c(C(=O)OC)sc(N)c2C(=O)OC)nnc1-c1ccc(Cl)cc1	-7	nt	9%	-1.1	-0.8	-6	38	7.1
O=C1Nc2ccccc2N(O)N1c1ccc(S(=O)(=O)N2CCOCC2)cc1	-3	-1.4	-4%	-6.8	0.3	8	-8	5.8
Cc1ccc(C(C(=O)NCC2CCCO2)N(C(=O)c2snc(C(N)=O)c2N)c2ccccc2F)o1 (stereo not drawn)	-3	-1.3	-2%	0.3	0.1	3	-6	3.9
CCOC(=O)C1CCN(Cc2ccc(O)c(OC)c2)CC1	3	nt	9%	-1.1	0.4	-7	-29	3.6
CCOC(=O)CSc1nc2ccccc2c(=O)n1CC1CCCO1 (stereo not drawn)	0	nt	-1%	-0.5	0.2	17	-8	2.9
CC(C)CN1C(=O)NC(NC(=O)c2cccnc2)(C(F)(F)F)C1=O (stereo not drawn)	-4	4.6	11%	nt	-0.7	nt	nt	-0.2
Cc1ccc(-c2cc(C(=O)N/N=C/c3c[nH]c4ccccc34)n[nH]2)o1	2	8.3	nt	2.5	-0.3	6	-7	3.2
CCCOc1ccc(C(=O)NNC(=O)CCNC(=O)c2ccccc2Cl)cc1OC	-4	-5.4	-1%	1.6	0.2	0	-12	-4.5
CSc1ccccc1C(=O)Nc1nc2ccccc2[nH]1	6	-0.8	-15%	-0.1	-3.7	15	-15	0.8
CC(Oc1ccc(Cl)cc1)c1ccnn1S(=O)(=O)c1ccccc1 (stereo not drawn)	0	nt	3%	?	0.2	17	24	-5.7
CCCCOc1c(Br)cc(/C=N/O)cc1OCC	2	nt	?	-4.1	0.1	27	2	-2.0
CCC(=O)c1ccc(OCC(=O)O)c(OC)c1	1	-1.2	3%	-0.1	-0.7	0	-1	-5.4
O=C(NNC(=O)c1cc(-c2cccnc2)nc2ccccc12)Nc1ccc(Cl)cc1	21	-0.9	-4%	0.6	0.5	13	-1	-1.3
CCN(CC)S(=O)(=O)c1ccc(F)cc1	-3	nt	22%	-2.5	-0.6	3	-10	-1.6
OCCN(Cc1ccccc1)Cc1ccc(Cl)cc1Cl	-23	nt	0%	-4.9	0.0	-17	-4	-1.4
O=[N+]([O-])c1ncccc1Oc1nc(-c2cccnc2)nc2ccccc12	19	-2.1	nt	-1.7	-0.2	13	nt	2.5
COc1ccc(N2C(=O)NC(NC(=O)C(C)(C)C)(C(F)(F)F)C2=O)cc1 (stereo not drawn)	1	-2.8	-4%	1.9	0.5	0	-10	-7.3
NS(=O)(=O)c1ccc(NC(=O)c2ccc(S(=O)(=O)N3CCOCC3)o2)cc1	-2	-0.1	?	1.8	-0.2	4	-10	-1.3
CCOC(=O)C1=C(CN2CCN(C(=O)c3ccco3)CC2)NC(=O)NC1c1ccc(OC(C)C)cc1 (stereo not drawn)	-3	0.5	0%	1.3	0.1	-39	-2	-2.8
COC(=O)CNC(=O)C12CC3CC(C1)CC(c1ccc(C)cc1)(C3)C2	1	-0.7	-6%	-0.9	0.5	-23	0	1.2
COC(=O)c1sccc1NC(=O)C1CCCCC1C(=O)O (stereo not drawn)	-1	-2.9	-7%	2.5	0.7	-1	4	9.2
CNC(=O)c1sc(-c2ccccc2)nc1C	-4	nt	?	1.5	1.2	-2	-1	0.4
CCC(C)[C@H](NC(=O)NCCC1=CCCCC1)C(=O)OC (stereo partly drawn)	2	0.5	4%	-3.0	0.6	-1	8	-0.6
COc1ccc(CCNC(=O)C2CCC(=O)N(CC3CCCCC3)C2)cc1 (stereo not drawn)	nt	0.2	nt	3.8	nt	7	2	nt
O=C(Cn1cnnn1)Nc1cccc([N+](=O)[O-])c1	-1	0.5	-10%	3.3	0.2	-21	-7	-16
O=C(CN1C(=O)c2cccnc2Oc2ccc(Cl)cc21)N1CCCC1	-8	-1.1	-5%	-2.7	0.0	3	-11	5.5
CCc1cc2c(SCC(=O)N3CCCC3=O)ncnc2s1	0	3.8	2%	nt	-0.1	nt	nt	-1.7
COc1ccc2oc(=O)c(C(=O)N3CCN(C(=O)c4ccccc4)CC3)cc2c1	-4	-2.1	nt	1.2	0.4	-21	5	-1.4

An excerpt from above, showing only Vif TR-FRET.
Molecule,Vif TR-FRET
CCCOc1ccc(C(=O)NNC(=O)CCNC(=O)c2ccccc2Cl)cc1OC,-1%
CSc1ccccc1C(=O)Nc1nc2ccccc2[nH]1,-15%

The results go on.
SMILES	Beta apoptosis	AF4-AF9 inh	Vif TR-FRET	RanGTP-Impb inh	Bfl-1 A1 inh	Calb FLC	T cruzi repl	LANA-H2B inh
OCc1ccnc2oc3ccccc3c12	-1	-1.9	nt	-1.4	-0.3	2	-9	5.8
Cn1ccs/c1=N\S(=O)(=O)c1ccc(F)cc1	-5	nt	10%	-0.3	0.2	-1	-17	2.9
CS(=O)(=O)c1ccc2nc(NC(=O)C3CC(=O)N(c4ccc(F)cc4)C3)sc2c1 (stereo not drawn)	nt	1.9	nt	-3.2	-0.1	-8	2	-7.0
CCOC(=O)c1sc2nc(CC(=O)OC)nc(NCc3ccc(Cl)cc3)c2c1C	52	4.4	-5%&0%	2.1	-0.3	-12	29	-1.3
O=C(Cn1cnc([N+](=O)[O-])n1)NCCc1ccccc1	1	0.2	3%	-4.4	0.4	2	76*	-0.3
CC(C)c1c(C(=O)N/N=C/c2ccc(-c3ccccc3)cc2)nnn1-c1nonc1N	-2	-1.1	nt	-0.3	0.0	-14	-10	-0.2
COc1ccc(N2CCN(CCNC(=O)c3ccc4c(c3)[nH]c(=S)n3c5ccccc5nc43)CC2)cc1	47	6.6	2%	1.1	1.9	?	?	-0.7
COc1ccc(OC)c(NC(=O)COC(=O)C2CCC2)c1	-3	-4.7	nt	nt	0.1	nt	nt	1.8

This is a random part of the collection; 4.3% or so of the library scored in one or more.
